# Screening data: PubChem, National Center for Advancing Translational Sciences (NCATS)
# RE007 growth inh – less growth of the S. pombe RE007 Vpr strain. S. pombe RE007 Vpr strain, BacTiter-Glo ATP luminescence, 24 h; control for the full effect not named in the record. Potency, µM (top dose mostly 92.2 µM), without a hit: at the top dose activity change, negative = less growth. 360,000 compounds, 0.21% hits. AID 651644; active = well fitted falling curve with a large enough effect; inconclusive = small, poorly fitted or top-dose-only effect; inactive = no such curve, though single readings can be large or run the other way;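 note: % is set by controls: 0 for no effect and ±100 for the full control effect; nearly all actives have a fitted effect of over 50% in size; the assay follows cell death caused by Vpr and the record does not say whether a fall means rescue or toxicity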
#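 Fission yeast strain RE007, carrying one chromosomally integrated HIV-1 vpr copy, was seeded at OD 0.01 in PMG+AL medium with 23 nL pinned compound. After 24 h at 30 °C and 99% humidity, viability was read by BacTiter-Glo luminescence.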
# 2A StopGo – FMDV 2A StopGo reporter, luciferase signal | AID 1159524 | Potency, µM (titrated, usually from 57.9 µM), for inactives: top-dose signal change, negative = less light | human cells with a luciferase reporter of 2A StopGo recoding; control for the full effect not named in the record | 410,000 compounds, 1.2% hits; active = well fitted falling curve with a large enough effect; inconclusive = small, poorly fitted or top-dose-only effect; inactive = no such curve, though single readings can be large or run the other way; tested in HEK293T cells; note: % is set by controls: 0 for no effect and ±100 for the full control effect; nearly all actives have a fitted effect of over 45% in size; luciferase light after 4 h
# SARS PLP yeast – blocks SARS-CoV papain-like protease in a yeast assay; 330,000 compounds, 0.19% hits; Potency, µM (series often up to 32.9 µM), inactives show at the top dose activity, positive = growth rescue; S. cerevisiae expressing SARS-CoV PLpro, growth rescue; control for the full effect not named in the record; active means well fitted rising curve with a large enough effect; inconclusive means small, poorly fitted or top-dose-only effect; inactive means no such curve, though single readings can be large or run the other way; note: 0% is about no effect; nearly all actives have a fitted effect of over 55% in size; growth read by luminescence after 48 h
# * marks the source's active call; other numbers are inactive results; ? = inconclusive; [ ] = remark or other dose. Potency is the fitted concentration of half-maximal effect.
1	CC1CCN(C(=O)COC(=O)c2ccc(Cl)nc2)CC1
2	O=C(NN1C(=O)NC2(CCCCC2)C1=O)c1cc2cc(Cl)ccc2o1
3	CC(=O)C(/C=N/c1ncc(C(F)(F)F)cc1Cl)=C(\C)O
4	O=C(OCC(=O)N1CCOCC1)c1cc2ccccc2oc1=O
5	COc1ccc(NC(=O)Cn2c(C)csc2=O)c(OC)c1
6	COc1ccc(-c2csc(NC(=O)CN3C(=O)C4CC=CCC4C3=O)n2)cc1 (stereo not drawn)

entry no. | 1 | 2 | 3 | 4 | 5 | 6
RE007 growth inh | -2.3% | -6.0% | -1.3% | -3.3% | -1.6% | 9.4%
2A StopGo | 28.0% | -5.4% | -16.0% | -0.9% | -22.6% | -18.2%
SARS PLP yeast | 12.3% | -0.9% | 0.8% | 1.5% | 1.2% | -1.2%

7	O=C(CSc1nc2ccccc2s1)NCc1cc([N+](=O)[O-])ccc1O
8	CC(C)(C)OC(=O)C[C@@H]1C/C=C\C[C@H](CC(=O)N[C@H](CO)Cc2ccccc2)C(=O)N[C@H](C(C)(C)C)COC1=O
9	Cc1cc(C(F)(F)F)n2ncc(-c3cccc(Br)c3)c2n1
10	CCCCN(C(=O)c1cc(-c2ccncc2)nc2ccccc12)c1c(N)n(CC(C)C)c(=O)[nH]c1=O
11	CN1CCC[C@@H]1CCNC(=O)c1c(-c2ccc3c(c2)OCO3)noc1-c1ccsc1
12	COc1ccc(-c2csc(NC(=O)CN3C(=O)CCC3=O)n2)cc1

entry no. | 7 | 8 | 9 | 10 | 11 | 12
RE007 growth inh | -2.8% | -17.3% | 11.5% | 3.6% | -21.5% | 0.6%
2A StopGo | -3.1% | -15.9% | 14.6% | 11.9% | 12.6% | 6.5%
SARS PLP yeast | 2.7% | -3.9% | 3.6% | 4.1% | 6.7% | 2.3%

# Overlap with the part before: 2 compounds, then new ones.
11	CN1CCC[C@@H]1CCNC(=O)c1c(-c2ccc3c(c2)OCO3)noc1-c1ccsc1
12	COc1ccc(-c2csc(NC(=O)CN3C(=O)CCC3=O)n2)cc1
13	NC(=O)c1ccsc1NC(=O)COC(=O)c1ccc(Cl)cc1
14	Cc1cnc(-n2c(=S)[nH]c3ccccc3c2=O)s1
15	CCN(C[C@H]1N[C@@](Cc2ccccc2)(C(=O)OC)[C@H]2C(=O)N(Cc3ccccc3)C(=O)[C@@H]12)S(=O)(=O)c1ccc(C(C)(C)C)cc1
16	CC(Oc1ccc(Cl)cc1)c1ccc(C#N)c(=O)[nH]1 (stereo not drawn)
17	COc1cc(C(=S)N2CCN(c3ccccc3Cl)CC2)cc(O)c1O
18	COc1ccc(-c2oc(=O)c3cc(OC)c(OC)cc3c2C(F)(F)F)cc1

entry no. | 11 | 12 | 13 | 14 | 15 | 16 | 17 | 18
RE007 growth inh | -21.5% | 0.6% | -15.2% | 3.5% | 1.7% | 1.3% | 8.7% | 7.9%
2A StopGo | 12.6% | 6.5% | 0.5% | 38.2%[activator] | -12.3% | -2.5% | -20.8% | 0.0%
SARS PLP yeast | 6.7% | 2.3% | 1.3% | -0.6% | 18.1% | -0.9% | -1.5% | -1.5%

19	COc1ccc(C/C(C)=N/NS(=O)(=O)c2ccc(Br)cc2)cc1
20	O=C(Cc1ccc([N+](=O)[O-])cc1)Nc1cccc(C(=O)N2CCCCC2)c1
21	Cc1cc(NC(=O)CN2C(=O)N(C)C3(CCCCC3)C2=O)ccc1Br
22	CCN(CC(=O)NC(=O)NCc1ccccc1)CC(=O)Nc1cc(Cl)ccc1C
23	CCCNC(=O)C(Cc1ccccc1F)NC(=O)c1ccc(C#N)cc1 (stereo not drawn)
24	CC[C@]12c3[nH]c4cc(CCC(=O)N(C)C)ccc4c3CCN1C(=O)[C@@H](CC(=O)NCCC1=CCCCC1)C[C@@H]2C(=O)N1CCN(C(=O)c2ccco2)CC1

entry no. | 19 | 20 | 21 | 22 | 23 | 24
RE007 growth inh | -4.3% | 5.9% | 0.6% | 5.4% | -2.8% | 13.5%
2A StopGo | 20.7% | -17.7% | -26.5% | -4.5% | -9.6% | 1.4%
SARS PLP yeast | 0.2% | -2.9% | 5.0% | -0.7% | 0.3% | 4.7%

25	Nc1ccn(CC(=O)NCCCc2ccccc2)c(=O)n1
26	Cc1ccc(S(=O)(=O)N2CCN(S(=O)(=O)c3ccccc3Br)CC2)cc1
27	CCCC(C)C1c2c(c(C)c(C)oc2=O)Oc2c(C)c(C)oc(=O)c21 (stereo not drawn)
28	CCS(=O)(=O)c1nc(S(=O)(=O)c2ccc(C)cc2)c(NCCCN(C)C)s1
29	CCOC(CNC(=O)Cn1nc(C)c2ccccc21)OCC
30	CCN(CC)CCCNCC(=O)Nc1ccc2c(c1)CCC2

entry no. | 25 | 26 | 27 | 28 | 29 | 30
RE007 growth inh | -7.6% | 3.2% | 9.9% | -12.8% | -4.8% | -1.4%
2A StopGo | -2.3% | -23.5% | -21.0% | -9.0% | -13.8% | 56.6%[activator]
SARS PLP yeast | 5.1% | 7.3% | -17.0% | -0.5% | -0.9% | 4.9%

31	O=C(C[C@H]1C/C=C\CC[C@H](Cc2ccc(F)cc2)C(=O)O[C@@H](c2ccccc2)CNC1=O)N[C@@H](CO)Cc1ccccc1
32	CN(c1ccccc1)S(=O)(=O)c1cccc(C(=O)NCC(=O)Nc2ccc(F)c(F)c2F)c1
33	CCC(C)Sc1cc(-c2nc3ccccn3c2NC2CCCCC2)ccc1OC (stereo not drawn)
34	Cc1ccsc1C(=O)NCCc1ccco1
35	Cc1cc2nc3n(c2cc1C)CC1CC(C(=O)NCc2cccc(Br)c2)N(C)C31 (stereo not drawn)
36	O=C(Cc1ccc([N+](=O)[O-])cc1)Nc1cccc(C(=O)N2CCCC2)c1

entry no. | 31 | 32 | 33 | 34 | 35 | 36
RE007 growth inh | -4.3% | -13.1% | ? | -8.1% | -7.0% | -7.8%
2A StopGo | -26.3% | 44.5%[activator] | ? | 55.3%[activator] | -15.1% | -27.2%
SARS PLP yeast | 1.1% | 3.1% | -13.6% | 5.1% | -5.1% | -27.2%

37	CCN1C(=O)[C@H]2[C@@H](c3ccc(-c4ccc(C(C)=O)cc4)cc3)N3CCCC[C@@]3(C(=O)OC)[C@H]2C1=O
38	CCN(CC)C(=O)[C@H]1C[C@H](CC(=O)NCCCOC)C(=O)N2CCc3c([nH]c4cc(-c5ccco5)ccc34)[C@]12C
39	Cc1cc(C)c(NC(=O)C2CC(=O)N(C3CCCC3)C2)c(C)c1 (stereo not drawn)
40	C=C[C@@H]1c2ccccc2N(S(=O)(=O)c2ccc(C)cc2)[C@H](c2ccc(C(F)(F)F)cc2)C1(C#N)C#N
41	COc1cccc(C(=O)OCC(=O)N2CCC(Cc3ccccc3)CC2)c1OC
42	COC1=CC=C2[C@H]3Cc4ccc(OC)c5c4[C@@]2(CCN3C)C1O5 (stereo partly drawn)

entry no. | 37 | 38 | 39 | 40 | 41 | 42
RE007 growth inh | -3.2% | 2.8% | -0.6% | -0.9% | -4.0% | -13.1%
2A StopGo | 0.0% | -8.2% | -1.6% | ? | ? | 0.0%
SARS PLP yeast | -1.7% | 18.9% | 5.9% | -0.2% | -0.3% | -8.6%

# A draw from above in order of molecular weight, descending.
21	Cc1cc(NC(=O)CN2C(=O)N(C)C3(CCCCC3)C2=O)ccc1Br
27	CCCC(C)C1c2c(c(C)c(C)oc2=O)Oc2c(C)c(C)oc(=O)c21 (stereo not drawn)
5	COc1ccc(NC(=O)Cn2c(C)csc2=O)c(OC)c1
29	CCOC(CNC(=O)Cn1nc(C)c2ccccc21)OCC

entry no. | 21 | 27 | 5 | 29
RE007 growth inh | 0.6% | 9.9% | -1.6% | -4.8%
2A StopGo | -26.5% | -21.0% | -22.6% | -13.8%
SARS PLP yeast | 5.0% | -17.0% | 1.2% | -0.9%

# (further entries)
43	CCN(CC(=O)Nc1ccc2c(c1)OCCO2)C(=O)c1cc(Cl)nc2ccccc12
44	Cc1cccc(NC(=O)c2nc[nH]c2C(=O)N2CCC(C)CC2)c1
45	CCCCn1c(N)c(N(CC)C(=O)C2CCCC2)c(=O)[nH]c1=O
46	Cc1ccc(-n2nc(C)cc2NC(=O)CC#N)cc1
47	Oc1ccccc1N=N/C(=N/Nc1ccccc1O)c1ccccc1
48	CCOC(=O)c1csc(NC(=O)c2cc(=O)c3ccccc3o2)n1

entry no. | 43 | 44 | 45 | 46 | 47 | 48
RE007 growth inh | -12.1% | -2.9% | 11.4% | 10.6% | -5.3% | -1.4%
2A StopGo | -9.1% | 32.1%[activator] | -11.3% | 1.0% | 3.9% | 41.9%[activator]
SARS PLP yeast | 1.3% | 1.5% | 0.4% | -2.0% | -15.3% | 7.6%

49	CN(Cc1ccccc1)C(=O)c1[nH]cnc1C(=O)NC1CCN(C(=O)OC(C)(C)C)CC1
50	COc1ccc(C(CNC(=O)C2CC(=O)N(Cc3ccccc3)C2)N2CCCC2)cc1 (stereo not drawn)
51	COC(=O)[C@@]12OC[C@]34[C@H]([C@@H](O)[C@@H]1O)[C@@]1(C)C(=O)C(O[C@@H]5OC(CO)[C@@H](O)[C@@H](O)[C@@H]5O)=C[C@@H](C)[C@@H]1C[C@H]3OC(=O)[C@H](OC(=O)/C=C(\C)C(C)(C)OC(C)=O)[C@@H]24 (stereo partly drawn)
52	COc1ccc(NC(=O)N(C)C[C@H]2Oc3ccc(NC(=O)CCN4CCOCC4)cc3C(=O)N([C@H](C)CO)C[C@@H]2C)cc1
53	COc1cccc(N2CCN(C(=O)c3cn(Cc4ccccc4)nc3-c3cccnc3)CC2)c1
54	CC(C)(C)N1C(=O)[C@H]2[C@@H](c3ccc(Br)cc3)N3C(=O)N(c4cccc(F)c4)C(=O)[C@@]3(Cc3ccccc3)[C@H]2C1=O

entry no. | 49 | 50 | 51 | 52 | 53 | 54
RE007 growth inh | -3.3% | -14.1% | 23.7% | 1.4% | 3.2% | 0.6%
2A StopGo | ? | -2.2% | 0.0% | -1.7% | 6.9% | -20.1%
SARS PLP yeast | -13.7% | 2.7% | 1.5% | -37.4% | -4.2% | 3.0%

55	CC(OC(=O)CCC(=O)c1cccs1)C(=O)NC1CCCCC1C (stereo not drawn)
56	CC1(NC(=O)Cc2c(Cl)cccc2Cl)CCS(=O)(=O)C1 (stereo not drawn)
57	S=C(NCC1CCCO1)Nc1cc(Cl)c(Cl)cc1Cl (stereo not drawn)
58	CCCNC(=O)c1onc(CSc2ccc(F)cc2)c1C(=O)NCCOC
59	NC(=O)c1ccc(NC(=S)NCc2ccco2)cc1
60	Cc1cc(OCC(=O)N2CCN(CC(=O)N3CCOCC3)CC2)c(C(C)C)cc1Cl

entry no. | 55 | 56 | 57 | 58 | 59 | 60
RE007 growth inh | 15.1% | -0.7% | -6.5% | -2.1% | 9.8% | -7.4%
2A StopGo | -11.5% | 3.4% | 65.7%[activator] | 3.9% | 21.8% | -18.8%
SARS PLP yeast | -29.0% | -11.6% | -1.3% | -14.3% | 0.1% | -3.3%

61	COc1ccc(NC(=O)Nc2ccc3c(c2)C(=O)N([C@H](C)CO)C[C@H](C)[C@@H](CN(C)S(C)(=O)=O)O3)cc1
62	Cn1cncc1C#Cc1c(C=O)[nH]c2ccccc12
63	COc1ccc(C(=O)COC(=O)c2cc(S(=O)(=O)N3CCCCC3)ccc2N2CCOCC2)c(OC)c1
64	CCCn1c2ccc(F)cc2c2nnc(NN)nc21
65	O=c1ccc(S(=O)(=O)N2CCCC2)cn1Cc1ccc(F)cc1
66	O=C(NNC(=O)c1ccccc1[N+](=O)[O-])c1cccs1

entry no. | 61 | 62 | 63 | 64 | 65 | 66
RE007 growth inh | 24.5% | -0.7% | -4.5% | -3.7% | 1.7% | 8.3%
2A StopGo | -19.2% | -24.2% | 33.2%[activator] | 0.0% | -17.5% | 5.5%
SARS PLP yeast | -21.1% | -2.1% | -14.5% | -4.3% | 4.4% | 4.3%

67	O=C(Nc1ccc(Cl)cc1)Nc1ccc(S(=O)(=O)Nc2ncccn2)cc1
68	COc1ccc(-c2coc3cc(O)c(OC)cc3c2=O)cc1
69	CCOc1cc(C=NNC(=O)c2cccc(S(=O)(=O)N3CCCC3)c2)ccc1O
70	Cc1cccc(C)c1NC(=S)N(CCN(C)C)C(C)c1ccccn1 (stereo not drawn)
71	COCCCNC(=O)C[C@H]1C[C@H](C(=O)N2CCOCC2)[C@@]2(C)c3[nH]c4cc(CCC(=O)N(C)C)ccc4c3CCN2C1=O
72	COc1cccc(-c2ncc3ccccc3c2COC(=O)N(C)C)c1
73	C[C@H](CO)N1C[C@H](C)[C@@H](CN(C)C(=O)NC2CCCCC2)Oc2c(NC(=O)Cc3ccccc3)cccc2C1=O

entry no. | 67 | 68 | 69 | 70 | 71 | 72 | 73
RE007 growth inh | -0.8% | -1.7% | -29.3% | 11.8% | 1.2% | -9.2% | -4.8%
2A StopGo | -3.0% | 34.8%[activator] | ? | -22.8% | -10.5% | ? | 48.1%[activator]
SARS PLP yeast | -6.8% | 4.2% | -1.5% | 0.0% | -7.0% | 2.1% | 4.6%

# The list is partial. The share of hits here may be higher or lower than overall.
